MT1-MMP act inh = blocks activation of human MT1-MMP; AID 651647; GFP/RFP ratio change, % at 20 µM; HT1080 RFP-PRO-GFP cells, GFP/RFP ratio fluorescence, overnight; percent of plate control window, DMSO zero; 0.061% of 360,000 active; P50281;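 active = GFP/RFP ratio change of at least 30% with cell ATP level not reduced by more than half and red fluorescence within 50% of control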; also: strong numbers were not always called active
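Compound: 20 µM single dose, 1% DMSO / System: HT1080 RFP-PRO-GFP cells / Controls: DMSO and RFP-L50D-GFP cell wells / Read-out basis: GFP/RFP fluorescence ratio / Schedule: overnight compound exposure at 37 °C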
Rce1 inh = blocks yeast Ras-converting enzyme | yeast membranes, quenched prenylated peptide cleavage fluorescence | calls only | 0.27% of 290,000 active | AID 2563;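 active = fall in fluorescence gain of 50% or more versus controls, with final raw signal at or below 3038400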;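 also: plate controls were neutral control wells for no effect and wells lacking membranes for full effect; tested at 10 µM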
Target sequence (Q03530 whole entry, looked up): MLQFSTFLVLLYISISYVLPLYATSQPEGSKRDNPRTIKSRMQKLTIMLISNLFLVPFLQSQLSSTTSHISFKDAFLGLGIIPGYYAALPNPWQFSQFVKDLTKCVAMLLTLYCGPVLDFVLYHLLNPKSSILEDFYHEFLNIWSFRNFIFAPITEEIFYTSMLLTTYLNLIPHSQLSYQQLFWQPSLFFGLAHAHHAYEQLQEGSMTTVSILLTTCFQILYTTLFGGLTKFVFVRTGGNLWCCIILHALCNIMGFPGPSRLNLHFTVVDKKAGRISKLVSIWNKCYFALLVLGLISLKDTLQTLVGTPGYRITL
CSC inhib = cancer stem cell inhibition; cancer stem cell-like cells viability, luminescence; inhibition, % at 7.5 µM; 1.1% of 300,000 active; AID 2717;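 active = mean at 75% or more and at least half the replicates too; tested in HMLE shEcad cells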;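 also: 0% = median of negative and 100% = median of positive control wells; the first replicate is given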
PABP FP inh = blocks human PABP binding to poly(A) RNA; P11940; fluorescence polarization; inhibition, % at 35 µM; 1% of 290,000 active;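 active = 50% or more with normal probe brightness, or confirmed in later tests; about a fifth of its hits are not listed in these tables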;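 also: calls also rest on retests at 20 µM and on dose response follow-up; controls were probe without protein and protein plus probe with vehicle; some compounds called inactive have numbers as strong as hits; many hits fall short of the cut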
Target sequence (P11940 whole entry, looked up): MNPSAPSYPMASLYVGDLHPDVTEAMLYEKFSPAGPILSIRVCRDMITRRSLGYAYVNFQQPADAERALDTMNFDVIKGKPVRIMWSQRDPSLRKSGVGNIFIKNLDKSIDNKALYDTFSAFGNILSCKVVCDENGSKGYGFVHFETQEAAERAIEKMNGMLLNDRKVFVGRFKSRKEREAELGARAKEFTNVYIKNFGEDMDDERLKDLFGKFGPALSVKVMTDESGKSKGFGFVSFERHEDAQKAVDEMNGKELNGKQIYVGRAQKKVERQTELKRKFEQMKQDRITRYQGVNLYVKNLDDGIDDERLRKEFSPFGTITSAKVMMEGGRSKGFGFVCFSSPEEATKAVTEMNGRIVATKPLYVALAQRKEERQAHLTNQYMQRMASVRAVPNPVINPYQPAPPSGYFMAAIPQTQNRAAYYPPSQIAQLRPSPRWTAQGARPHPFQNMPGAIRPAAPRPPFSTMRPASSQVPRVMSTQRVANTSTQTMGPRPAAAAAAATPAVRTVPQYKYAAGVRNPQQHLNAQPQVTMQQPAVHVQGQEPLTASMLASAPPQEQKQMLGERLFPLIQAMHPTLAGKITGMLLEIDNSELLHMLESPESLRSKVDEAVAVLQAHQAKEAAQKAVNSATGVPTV
eIF4H FP inh = inhibitors of RNA binding by human eIF4H; Q15056; eIF4H fluorescence polarization binding assay; inhibition, % at 35 µM; 0.94% of 290,000 active;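 active = 50% or more with normal probe brightness, or confirmed in later tests; about a fifth of its hits are not listed in these tables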;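 also: calls also rest on retests at 20 µM and on dose response follow-up; 0% = protein and probe with vehicle and 100% = probe without protein; strong numbers were not always called active; many hits fall short of the cut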
Env fusion inh = blocks HIV Env-driven cell-cell fusion. HeLa-JRFL Env/CEM21 cell fusion, luciferase. inhibition, % at 12.3 µM. 1.1% of 360,000 active. AID 651610;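 active = mean replicate inhibition score of at least 50 and every replicate individually at or above 50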;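 also: 0% = plate neutral controls and 100% = maraviroc near 300 nM; one replicate is shown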
UUG fidelity = yeast start codon fidelity modulation | S. cerevisiae UUG-firefly luciferase reporter, luminescence/redox ratio | activity score, % at 18.7 µM | 0.13% of 350,000 active | AID 602363;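 active = replicate mean at a twofold rise or more, about +100% in these data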;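 also: firefly luciferase made from a UUG start codon reports start codon fidelity; reporter light over untreated wells divided by growth signal over untreated wells; some hits fall short of that in this replicate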
eIF4H FP inh retest = recorded beside eIF4H FP inh, whose call it bears; inhibition, %; compound at 20 µM; confirmation average;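 mean of two retest wells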
PABP FP inh retest = also measured in PABP FP inh; calls as there; inhibition, %; compound at 20 µM; confirmation repeats;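 mean of two retest wells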
MT1-MMP act inh RFP = recorded beside MT1-MMP act inh, whose call it bears; RFP signal change, %; measured here: RFP expression control read;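 0 = vehicle wells; hits needed this value within 50% of zero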
Numbers without * were called inactive; i = inactive; x = no result given.

SMILES	MT1-MMP act inh	MT1-MMP act inh RFP	Rce1 inh	CSC inhib	PABP FP inh	eIF4H FP inh	Env fusion inh	UUG fidelity	others
CCOC(=O)C1CCCN(C(=O)Cc2ccc(Cl)cc2)C1 (stereo not drawn)	0.0	1.1	i	-12.9	3.1	3.0	x	x
O=C(CCNS(=O)(=O)c1ccc(Br)s1)N1CCCCC1	1.3	1.2	i	-12.3	0.6	-0.1	x	-8.9
CC1CCCN(C(=O)COC(=O)c2ccc(=O)n(Cc3ccccc3)n2)C1 (stereo not drawn)	3.0	3.2	i	-11.9	x	x	4.5	x
CC1CCN(C(=O)c2nc[nH]c2C(=O)N2CCc3ccccc3C2)CC1	-1.0	0.5	x	-2.5	x	x	12.3	3.0
c1ccc(-c2noc(-c3cccnc3)n2)cc1	-3.5	-0.6	i	-14.0	7.4	-8.5	-75.1	-15.8
O=C(c1ncc[nH]1)c1cccs1	-1.9	2.4	i	-13.6	11.9	0.2	2.1	-14.4
COc1ccc(N2CCN(C(=O)CSc3ncccc3-c3nc4ccccc4[nH]3)CC2)cc1	-8.5	0.7	i	3.5	9.4	0.9	x	-1.1
Cc1ccc(/C(O)=C2/C(=O)C(=O)N(Cc3cccnc3)C2c2ccccn2)cc1 (stereo not drawn)	x	x	x	-15.7	4.5	6.1	x	-18.7
CC(=O)Nc1cccc(NC(=O)CCNC(=O)c2ccccc2)c1	-2.1	-2.0	i	-1.8	-9.2	0.6	7.8	-22.8
C=CCOC(=O)Nc1c(C(=O)OC)[nH]c2ccccc12	0.0	1.3	x	-4.4	5.4	6.0	x	0.5
CCOC(=O)C1(CCCc2ccccc2)CCN(C(=O)CCc2cnn(C)c2)CC1	0.5	-2.4	i	-6.7	3.8	11.2	29.4	x
Cc1cc(C)n2ncc(C(=O)NC3CCCCC3)c2n1	-2.1	1.6	i	x	-3.5	-5.1	6.3	11.1
Cc1noc(C)c1NC(=O)N(C)C[C@H]1Oc2ccc(NC(=O)NC(C)C)cc2C(=O)N([C@H](C)CO)C[C@@H]1C	0.8	4.4	x	x	x	x	4.6	-7.5
Cc1ccc(CONC(=O)c2ccc(OC(F)F)cc2)cc1	2.5	3.9	i	-18.5	8.1	6.2	-19.5	-15.6
Cc1nn(-c2ccccc2)c(C)c1C(=O)OCc1ccc(C#N)cc1	-2.3	-4.1	i	x	-0.3	-7.3	7.7	8.8
Cc1cc(=O)oc2c1c(C)nn2-c1ccc(Cl)cc1	-4.8	-3.5	i	-10.9	1.7	-0.3	-11.8	x
O=C(Nc1ccc(Cl)cc1)C(c1ccccc1)N1CCOCC1 (stereo not drawn)	-13.3	-3.5	i	-11.8	5.1	-7.5	-49.9	x
COc1ccc(C(=O)Nc2ccccc2)cc1S(=O)(=O)NCc1ccco1	-1.9	0.8	i	x	2.5	2.3	-0.8	-16.8
COC(=O)C1=C(C)OC(N)=C(C#N)C1c1cccnc1 (stereo not drawn)	-8.8	-2.6	i	18.0	15.4	12.3	-0.5	-9.6
COc1cccc(C(=O)Nc2ccc3c(c2)C(=O)N(CC2CCCO2)C3=O)c1 (stereo not drawn)	5.5	-4.6	i	-2.4	6.3	14.3	-5.1	8.1
CCCCN(C)CCn1c(=S)[nH]c2cc(OCC)c(OCC)cc2c1=O	1.4	2.1	i	-8.2	-11.2	-4.9	-8.0	2.6
CCC(=O)NC(Cc1ccccc1)c1nc2ccccc2[nH]1 (stereo not drawn)	4.7	5.4	i	x	-8.4	-0.6	-24.1	-7.6
COc1ccc(NC(=O)N(C)C[C@H]2Oc3c(NS(=O)(=O)c4ccc(OC)cc4)cccc3C(=O)N([C@H](C)CO)C[C@@H]2C)cc1	0.9	1.7	x	x	x	x	-14.9	6.8
CCc1cc([N+](=O)[O-])cc(CC)c1N	-1.7	-1.8	i	20.7	4.7	-1.5	x	6.7
O=C(/C=C/c1ccccc1)N(Cc1cccs1)C1CCS(=O)(=O)C1 (stereo not drawn)	-0.2	1.1	i	5.3	-0.5	-2.3	15.3	-9.8

Brought forward from above: 3 entries, then new ones.
SMILES	MT1-MMP act inh	MT1-MMP act inh RFP	Rce1 inh	CSC inhib	PABP FP inh	eIF4H FP inh	Env fusion inh	UUG fidelity	others
COc1ccc(NC(=O)N(C)C[C@H]2Oc3c(NS(=O)(=O)c4ccc(OC)cc4)cccc3C(=O)N([C@H](C)CO)C[C@@H]2C)cc1	0.9	1.7	x	x	x	x	-14.9	6.8
CCc1cc([N+](=O)[O-])cc(CC)c1N	-1.7	-1.8	i	20.7	4.7	-1.5	x	6.7
O=C(/C=C/c1ccccc1)N(Cc1cccs1)C1CCS(=O)(=O)C1 (stereo not drawn)	-0.2	1.1	i	5.3	-0.5	-2.3	15.3	-9.8
COC(=O)C1=C(C)Nc2sc(C(N)=O)c(N)c2C1c1ccncc1 (stereo not drawn)	-1.8	-1.4	i	x	22.9	53.1	14.6	-14.2	eIF4H FP inh retest=-9.3;PABP FP inh retest=2.4
Cc1ccc(N2CCN(S(=O)(=O)c3c(C)noc3C)CC2C)cc1 (stereo not drawn)	1.4	-2.1	i	-14.9	-9.0	-6.5	0.1	20.1
CSc1ccc(CCNS(=O)(=O)c2csc(C(N)=O)c2)cc1	5.4	-7.0	i	-4.0	-6.1	-19.8	-0.1	-12.4
Cc1cccc(C)c1NC(=O)CSc1nc(-c2ccco2)cc(C(F)(F)F)n1	-7.4	-6.6	i	45.4	-0.4	-4.1	x	-12.9
Cc1cccc(/C=N\NC(=O)c2sccc2-n2cccc2)c1	-1.3	-13.1	i	1.8	2.3	-2.7	x	-9.4
CCOc1c(C=C(C#N)C#N)c2ccccc2n1CC	1.1	4.7	i	32.6	-7.6	-4.0	-0.7	x
CCCCN=C(N)/C(C(=O)OCC)=C(\O)c1ccc(OC)cc1	-3.4	-5.7	i	21.5	8.0	8.3	x	1.1
Cc1cc2cc(CCNC(=O)CCc3ccccc3)c(=O)[nH]c2cc1C	1.9	1.1	i	-0.8	-2.1	-14.8	25.5	-0.3
Cc1cc(C(C)(C)C)oc1C(=O)N(CC(=O)NC1CCCC1)c1cccc(C(F)(F)F)c1	-39.0	-29.8	i	26.1	-6.9	-6.7	x	-16.4
Cc1ccc(S(=O)(=O)N2C[C@@H]3CCCC[C@@H]3[C@@H](C)[C@H]2c2cn(Cc3ccccc3)c3ccccc23)cc1	-5.4	-27.1	x	x	x	x	62.9*	-3.5
COc1ccc(OC)c(C(=O)COC(=O)c2cccnc2Cl)c1	-0.4	2.5	i	-11.9	-2.2	5.4	-4.5	-3.7
COc1cc(OC)cc(C(=O)Nc2nnc(SCC(=O)NCc3ccco3)s2)c1	-0.5	-1.8	i	-12.1	5.5	-7.4	1.3	-2.7
COc1cc(-c2nc(-c3ccccc3)c(-c3ccc(F)cc3)[nH]2)cc2c1OCO2	-1.9	-9.6	i	-5.1	-14.8	-6.2	-7.6	-3.3
Cc1cc(C(=O)Nc2cccc3c2O[C@@H](CN(C)S(=O)(=O)c2ccccc2)[C@H](C)CN([C@@H](C)CO)C3=O)n(C)n1	4.7	5.8	x	-7.1	x	x	2.4	-3.0
COc1ccc(S(=O)(=O)Nc2ccc(Oc3ncccn3)c(Cl)c2)cc1	-5.0	-5.5	i	-12.9	3.9	-4.2	1.8	-17.2
COc1ccc(S(=O)(=O)Cc2ccc(C(=O)NCCCN(C)c3ccccc3)o2)cc1	1.1	-0.8	i	-15.1	3.9	-1.1	26.9	11.4
Cc1ccc(NC(=O)C2=CCN(S(=O)(=O)c3ccc(F)cc3)CC2)c(C)c1	-1.8	-2.6	i	-5.8	-4.3	15.9	3.1	-19.0
CCOCCCNS(=O)(=O)Cc1ccccc1	-2.2	-3.3	i	-6.7	-10.8	-11.7	-136.2	-14.2
CCOC(CCn1c(SCC(=O)Nc2cc(C)on2)nc2ccccc2c1=O)OCC	0.7	-3.6	i	-6.0	-5.3	-3.0	2.0	2.8
COc1ccccc1CNN	-3.8	2.9	i	-9.7	-10.8	-12.6	-4.6	-10.1
O=C1OCCC1Sc1nnc(-c2ccc(Cl)cc2)n1Cc1ccccc1 (stereo not drawn)	2.3	4.3	i	15.2	1.1	-16.2	11.5	x
O=C(O)CCC(=O)Nc1ccc(C(=O)OC2CCCCC2)cc1	5.3	1.6	i	20.3	-4.4	0.2	x	-36.0
CC1=NN(c2ccc(C(=O)O)cc2)C(=O)CC1	2.1	2.9	i	-10.4	-2.5	-7.9	0.2	-23.5
Cc1cccc(-n2cc(CNCCc3nc(C)cc(C)n3)c(-c3cccc(F)c3)n2)c1	-5.1	-6.9	i	19.7	6.8	-3.7	39.1	-8.0
CC[C@H](C)[C@H](NC(N)=O)C(=O)Nc1ccc(OC)c(Cl)c1	4.1	5.7	x	-6.7	-7.3	33.2	-0.4	-18.0
(more compounds)
SMILES	MT1-MMP act inh	MT1-MMP act inh RFP	Rce1 inh	CSC inhib	PABP FP inh	eIF4H FP inh	Env fusion inh	UUG fidelity	others
COc1ccccc1CNC(=O)CCNS(=O)(=O)c1ccc2[nH]c(=O)oc2c1	-2.2	-2.3	i	-18.3	12.3	9.5	3.3	-14.6
Cc1nn(Cc2ccc(Cl)cc2Cl)c(C)c1NC(=O)CCl	-0.8	2.7	i	-6.5	5.0	-2.4	-268.0	-12.7
COc1ccc(NC(=O)C2CCC(C(C)(C)C)CC2)cc1S(=O)(=O)N1CCCCC1 (stereo not drawn)	-12.2	-12.8	i	30.3	43.9	-10.1	14.6	x
Cc1ccc(OCc2cc(C(=O)N3CCC(Oc4cccnc4)CC3)no2)cc1C	4.9	-3.0	i	7.0	-3.6	2.0	2.4	-7.9
CCOC(=O)c1c(NC(=O)CSc2nnnn2C)sc(C(=O)N(C)C)c1C	-0.1	2.3	i	-7.1	6.1	2.5	7.0	x
CCOC(=O)COc1cc2c3c(c(=O)oc2cc1C)CCCC3	0.0	-0.1	i	-11.7	-6.5	-7.7	x	-12.7
O=C(CSc1cccc(C(F)(F)F)c1)NCc1ccccc1	-0.4	0.6	i	0.1	-5.7	3.9	x	x
COc1cc(-c2nc3c[n+](CC(=O)c4ccccc4)ccc3n2C)cc(OC)c1OC	0.8	2.7	i	-3.9	15.6	-18.2	x	x
O=C(NCc1ccc(-n2cccc2)cc1)c1cccc(F)c1	1.5	-4.0	i	2.9	-8.4	4.8	-1.0	x
O=S(=O)(c1ccccc1)N1CCN=C1SCc1c(F)cccc1Cl	-0.4	-2.1	i	-7.5	3.1	-8.1	8.6	-13.0
O=C(Nc1ccc(Br)cc1)c1cccc(S(=O)(=O)Nc2ccccn2)c1	1.5	-17.5	i	7.2	-11.5	2.3	47.4	-8.9
O=C(CN(C(=O)CCC(=O)Nc1nccs1)c1ccc2c(c1)OCCO2)NCc1ccco1	-2.4	1.0	i	-7.1	6.2	-10.0	x	-8.9
O=C(CCN1C(=O)/C(=C/c2ccccc2)SC1=S)NCCc1ccc(O)cc1	0.7	1.5	i	21.1	-3.0	-7.8	x	-1.0
CC(C)Nc1oc(-c2cccc3ccccc23)nc1C#N	-3.9	1.9	i	-0.5	1.0	7.9	-66.1	-22.7
O=C(/C(=C(\[O-])c1ccccc1)[n+]1ccc2ccccc2c1)c1ccccc1	-11.7	4.5	i	-5.8	8.0	19.8	-12.7	x
COc1ccccc1N1CCN(C(=O)c2ccc(COc3cccc4c3OC(C)(C)C4)cc2)CC1	1.6	-10.5	i	61.5	x	x	14.5	2.2
O=C1CN(CC(=O)NC2CCCc3ccccc32)CCN1 (stereo not drawn)	3.7	5.2	i	1.6	10.6	-3.9	-1.3	3.9

Assay outcomes (PubChem BioAssay)
